NPYLR7 ag: activates Aedes aegypti NPYLR7 receptor; HEK293T NPYLR7/Galpha15, GCaMP6s calcium fluorescence; activation, % at 10 µM; AID 1259423; 0.15% of 270,000 active; in the data active = activation above about 40%;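 also: 0% = vehicle and 100% = reference agonist at the receptor; some compounds past the cut are filed as inactive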
NPYLR7 ag max-min: also measured in NPYLR7 ag; calls as there; activation, %; measured here: Max-Min RFU normalised activation; some inactives read as strong as hits;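 span of the calcium signal over five minutes; 0% = vehicle and 100% = native peptide agonist; compound fluorescence can raise it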
* = called active by the depositor.

entry	Molecule	NPYLR7 ag	NPYLR7 ag max-min
1	Cn1nnc2c(Nc3cc(F)ccc3F)ncnc21	9	4
2	Cc1ccc(-n2c(SCCCC(=O)N3CCN(C(=O)c4ccc([N+](=O)[O-])cc4)C(C)C3)nnc2-c2ccco2)cc1 (configuration not stated)	18	22
3	CCNC(=O)C1(C)CCN(Cc2ccc(OC(F)(F)F)cc2)C1 (configuration not stated)	4	5
4	CSCCCNC(=S)NNC(=O)C1CC1	-6	-6
5	COC(=O)c1ccc(NC(=O)C(C)NC(=O)c2ccc(Br)cc2)s1 (configuration not stated)	4	-3
6	O=C(CN1CN(c2ccccc2)C2(CCN(C(=O)C3CCCCC3)CC2)C1=O)NCCc1ccccn1	5	17
7	Cc1nc2ccc(C(=O)N3CCC(CCC(=O)NC4CC4)CC3)cc2nc1C	17	7
8	COc1ccc(C2CCCCC2=O)cc1F (configuration not stated)	3	1
9	O=C(NNC(=O)c1ccc(=O)n(Cc2ccccc2)c1)c1ccc(F)cc1	-6	-13
10	CC(C)N1CC=C2C(C#N)C(=N)C(C#N)(C#N)C(c3cc(Br)ccc3F)C2C1 (configuration not stated)	21	17
11	O=C(CNc1c(F)cccc1-n1cccn1)N1CCOCC1	-20	-21
12	CC(C)(C)OC(=O)N1N=C2CCCCC2C1(O)C(F)(F)F (configuration not stated)	9	7
13	Cc1ccc(-c2ccnc(N3CCC4(CC3)CNC(=O)O4)n2)c(C)n1	4	2
14	COc1ccccc1NC(=O)N1CCSC1c1cccc(Oc2ccccc2)c1 (configuration not stated)	11	19
15	CCN(CC)C(=O)Oc1ccc(-c2ccccc2)cc1	-4	-8
16	COc1ccc(NC(=O)CCC(=O)Nc2sccc2C(N)=O)cc1	6	5
17	COc1cccc(-c2cnc(-c3ccncc3)nc2C2CCN(C(=O)c3cncs3)CC2)c1	6	4
18	Cc1cccc(C(=O)Nc2cnc3c(c2)c(=O)n(C)c(=O)n3C)c1	11	3
19	CCn1ncc(NC(=O)Cn2ncc3cc(-c4ccc(OC)nc4)ccc32)n1	-4	-10
20	O=C1N(Cc2cccc(Cl)c2)C[C@@H]2C[C@@H](c3ccccn3)N3CCC[C@@]123	8	12
21	CCOC(=O)c1cc(-c2ccc(F)cc2)n(C2CCN(C(=O)c3c(-c4ccccc4Cl)noc3C)CC2)n1	2	-1
22	O=C1N(Cc2cccnc2)c2ccccc2S(=O)(=O)N1c1cc(F)ccc1F	-2	3
23	COc1cc(OC)cc(C(=O)NCC2CCCN(C(=O)c3oc(C)cc3C)C2)c1 (configuration not stated)	8	-2
24	COc1ccc(NC(=O)N2CCC3(CC2)C(=O)N(CC(=O)Nc2ccc(F)cc2)CN3c2ccccc2)c(OC)c1	19	23

Record cards, as listed above:
`O=C(NNC(=O)c1ccc(=O)n(Cc2ccccc2)c1)c1ccc(F)cc1` is entered as NPYLR7 ag: -6; NPYLR7 ag max-min: -13
`COc1cccc(-c2cnc(-c3ccncc3)nc2C2CCN(C(=O)c3cncs3)CC2)c1` is entered as NPYLR7 ag: 6; NPYLR7 ag max-min: 4

The list goes on:
entry	Molecule	NPYLR7 ag	NPYLR7 ag max-min
25	Cc1ccc(C(=O)NNC(=O)OC(C)(C)C)c(Cl)c1	7	11
26	CCN(CC)C(=O)Oc1ccc2c(ccn2Cc2ccccc2OC(F)(F)F)c1-c1ccc(C#N)cc1	13	3
27	Cc1cccc(COC(CN2CCN(C(=O)c3ccc(C#N)cc3)CC2)c2ccc(Cl)cc2)c1 (configuration not stated)	6	-1
28	CN(C)c1ncc2c(n1)CCCC2NC(=O)CCc1cnn(C)c1 (configuration not stated)	13	5
29	CCOC(=O)Cc1cnc(C)[nH]c1=O	4	1
30	O=C(CSc1nnnn1-c1cccc(F)c1)Nc1ccccc1	0	1
31	O=C(Cn1c2ccccc2n2ncnc12)c1ccc(Br)cc1	3	-5
32	COc1ccc(OC)c(C2SCC(=O)N2CC(O)c2ccccc2)c1 (configuration not stated)	0	0
33	Cc1noc(N)c1C(=O)OCC(=O)NCC1(c2ccc(F)cc2)CCCC1	11	9
34	CCOCCCn1c(SC)nc2ccc(Br)cc2c1=O	2	0
35	CC(C)(C)c1nnc2sc(SCCN3C(=O)c4ccccc4C3=O)nn2c1=O	0	-3
36	Cc1cc(=O)oc(C)c1C(=O)NCC1CCCO1 (configuration not stated)	23	13
37	CCC(Nc1cccc(OC)c1)C(=O)N(C)Cc1n[nH]c2c1CCC2 (configuration not stated)	2	-6
38	Cc1[nH]nc2c1C(c1cccc(Br)c1)C(C#N)C(=N)O2 (configuration not stated)	-15	-18
39	COc1cccc(CN(CC(O)COc2ccccc2)CC2CC(c3ccc4c(c3)OCO4)=NO2)c1 (configuration not stated)	-2	5
40	CCCCCNC(=O)CSc1nc(Cl)cc(N2CCN(c3ccc(OC)cc3)CC2)n1	-6	-7
41	CC(=O)Nc1ccc(S(=O)(=O)N2CCC[C@@H]2C(=O)NC2CCC(NC(=O)c3ccccc3)CC2)cc1 (some centres not stated)	4	13
42	C=CCCc1nc(-c2c(OC)cccc2OC)no1	1	3
43	CCc1cn[nH]c1C1CCCN(C(=O)c2csc(Cc3ccccc3)n2)C1 (configuration not stated)	9	8
44	COc1ccc(C(=O)Nc2cc(-c3nc4cc(C)cc(C)c4o3)ccc2C)cc1OC	0	-2
45	O=C(c1ccccc1N1CCC(NS(=O)(=O)c2ccccc2)CC1)N1CCc2ccccc2C1	-4	3
46	COc1ccccc1C(=O)N(CCN(C)C)Cc1c(-c2ccccc2)noc1N1CCCCC1	8	9
47	COc1ccc(CN(C)Cc2cc(=O)oc3cc(C)ccc23)c(OC)c1	13	3
48	Cc1[nH]cnc1CN1CCC(O)(c2cccc(C(F)(F)F)c2)CC1	-1	-6

Exported with two lines to a compound: entries from further up.
Each structure is followed by: NPYLR7 ag, NPYLR7 ag max-min
#30 O=C(CSc1nnnn1-c1cccc(F)c1)Nc1ccccc1
    0, 1
#31 O=C(Cn1c2ccccc2n2ncnc12)c1ccc(Br)cc1
    3, -5
#32 COc1ccc(OC)c(C2SCC(=O)N2CC(O)c2ccccc2)c1 (configuration not stated)
    0, 0
#33 Cc1noc(N)c1C(=O)OCC(=O)NCC1(c2ccc(F)cc2)CCCC1
    11, 9
#34 CCOCCCn1c(SC)nc2ccc(Br)cc2c1=O
    2, 0

Returning to the listing, repeating the 6 entries before the break.
entry	Molecule	NPYLR7 ag	NPYLR7 ag max-min
43	CCc1cn[nH]c1C1CCCN(C(=O)c2csc(Cc3ccccc3)n2)C1 (configuration not stated)	9	8
44	COc1ccc(C(=O)Nc2cc(-c3nc4cc(C)cc(C)c4o3)ccc2C)cc1OC	0	-2
45	O=C(c1ccccc1N1CCC(NS(=O)(=O)c2ccccc2)CC1)N1CCc2ccccc2C1	-4	3
46	COc1ccccc1C(=O)N(CCN(C)C)Cc1c(-c2ccccc2)noc1N1CCCCC1	8	9
47	COc1ccc(CN(C)Cc2cc(=O)oc3cc(C)ccc23)c(OC)c1	13	3
48	Cc1[nH]cnc1CN1CCC(O)(c2cccc(C(F)(F)F)c2)CC1	-1	-6
49	N#Cc1cccc(CN2C(=O)C3(SCCN3C(=O)c3ccc(F)cc3)c3cc(Cl)ccc32)c1 (configuration not stated)	8	11
50	Cc1ccc(-c2cc(C(=O)O)n3nc(-c4ccc(Cl)cc4)cc3n2)cc1	-7	-5
51	O=C(c1cccc2nccnc12)N1CCCC2(C1)C(=O)Nc1ccccc12 (configuration not stated)	-2	-3
52	COc1cccc2c3c(c(C)nc12)CC(CO)O3 (configuration not stated)	1	-1
53	Cn1ccnc1C(NC(=O)COc1ccccc1F)c1ccccc1 (configuration not stated)	9	9
54	CN(CCN1CCOCC1)Cc1nc(-c2ccc(C(F)(F)F)cc2)no1	-2	-5
55	Clc1nc(N2CCCCC2)nc(N2CCCCC2)n1	6	6
56	CCOc1ccccc1CSCc1ccc(C(N)=O)cc1	4	1
57	CC1(C(=O)NS(=O)(=O)c2cccc(Cl)c2)CCN1C(=O)C1CCCCC1 (configuration not stated)	8	3
58	COc1ccc(CN(CCc2c[nH]c3ccccc23)C(=O)CN(CC(C)C)C(=O)C(C)(C)CCl)cc1OC	18	26
59	O=C(NC1CCCNC1)c1cc(COc2cccc(C(F)(F)F)c2)[nH]n1 (configuration not stated)	-6	2
60	CCOCCCN(CC(=O)N(Cc1cccn1Cc1ccccc1)C1CCCCC1)S(=O)(=O)c1ccc(Cl)c([N+](=O)[O-])c1	-3	5
61	Cc1ccc(NC(=O)C2(C)CCN2C(=O)CCc2ccc(Cl)cc2Cl)cc1 (configuration not stated)	-2	0

This is a subset; count on the stated rates, not on these rows.
